LANA-H2B inh = blocks KSHV LANA binding to histone H2A/H2B; Q9QR71; cell-free LANA-H2A/H2B peptide, fluorescence polarization; inhibition, % (concentration not given with the values); 0.6% of 320,000 active; AID 2629; in the data active = inhibition mostly above about 10%, no sharp cut-off; inactive = mostly below about 6.7%;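 note: stock transfer was 7.5 nL into about 10 µL; 0% = median of vehicle wells and 100% = median of positive control wells; one replicate is shown; the record names a cut of 25% in any replicate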
Target sequence (Q9QR71 whole entry, looked up): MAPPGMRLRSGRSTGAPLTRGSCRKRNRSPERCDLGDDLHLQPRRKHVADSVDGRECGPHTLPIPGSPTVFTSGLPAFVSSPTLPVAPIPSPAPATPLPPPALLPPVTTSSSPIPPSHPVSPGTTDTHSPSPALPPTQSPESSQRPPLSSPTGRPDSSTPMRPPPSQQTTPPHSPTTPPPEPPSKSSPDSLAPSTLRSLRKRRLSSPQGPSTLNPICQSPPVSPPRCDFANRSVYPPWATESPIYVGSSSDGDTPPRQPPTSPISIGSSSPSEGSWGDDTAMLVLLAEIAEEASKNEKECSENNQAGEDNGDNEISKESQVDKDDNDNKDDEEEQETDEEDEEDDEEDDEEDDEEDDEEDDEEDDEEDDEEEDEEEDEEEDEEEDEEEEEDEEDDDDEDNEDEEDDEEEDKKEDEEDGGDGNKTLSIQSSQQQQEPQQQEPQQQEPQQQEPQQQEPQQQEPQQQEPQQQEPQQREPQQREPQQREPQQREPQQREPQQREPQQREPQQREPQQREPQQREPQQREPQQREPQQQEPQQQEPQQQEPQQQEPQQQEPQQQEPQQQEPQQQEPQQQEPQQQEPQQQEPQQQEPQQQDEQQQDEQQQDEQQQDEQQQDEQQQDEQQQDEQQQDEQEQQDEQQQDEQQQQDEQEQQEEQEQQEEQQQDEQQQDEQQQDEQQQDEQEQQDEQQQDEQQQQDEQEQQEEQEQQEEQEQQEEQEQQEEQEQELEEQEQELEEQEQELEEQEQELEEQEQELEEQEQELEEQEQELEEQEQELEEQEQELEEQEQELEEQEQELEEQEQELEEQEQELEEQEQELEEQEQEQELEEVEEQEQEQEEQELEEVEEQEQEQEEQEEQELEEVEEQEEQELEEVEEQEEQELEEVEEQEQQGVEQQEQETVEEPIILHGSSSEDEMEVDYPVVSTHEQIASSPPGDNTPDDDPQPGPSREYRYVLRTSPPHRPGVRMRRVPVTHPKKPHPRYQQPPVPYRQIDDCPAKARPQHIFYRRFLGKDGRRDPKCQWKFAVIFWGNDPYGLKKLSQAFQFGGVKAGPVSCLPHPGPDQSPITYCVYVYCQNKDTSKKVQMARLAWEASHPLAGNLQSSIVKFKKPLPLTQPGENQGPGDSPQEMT
Beta2AR agonist = agonists of human beta-2 adrenergic receptor inducing internalization | Am2.2-beta2AR cells, FAP receptor internalization, flow cytometry; reference of the scale not given here | response, % (test concentration not listed) | 0.43% of 340,000 active | AID 504454;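 active = response above a set limit, near 3 SD of response in nonfluorescent compounds, cut at about 42% in these data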;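 note: stock transfer was 100 nL into about 11 µL; a reference agonist was the positive control; negative values mostly stem from fluorescent compounds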
Calb FLC = affects C. albicans growth with fluconazole. C. albicans CaCi-2 (fluconazole-resistant clinical isolate) + fluconazole, Alamar Blue growth, 48 h. 0.57% of 300,000 active. growth inhibition, % (test concentration not listed);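 active = most replicates above 75%; inconclusive = exactly half above 75%; inactive = most below 75%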;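 note: all wells also contain fluconazole at 8 µg/ml as a sub-toxic cotreatment; 0% = median of DMSO wells and 100% = median of geldanamycin control wells; wells of about 8 µL received 7.5 nL stock; the first replicate is given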
T cruzi inh = blocks replication of Trypanosoma cruzi | T. cruzi beta-gal in NIH3T3, luminescence, 90 h | inhibition, % (test concentration not listed) | 1.4% of 300,000 active | AID 1885;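 active = mean inhibition across valid replicates above about 55%, limit read from the data; inconclusive = mean below that limit but half or more replicates reach it; inactive = mean below it, under half of replicates reach it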;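 note: signal also drops with host cell toxicity which is not excluded here; 0% = plate median of DMSO wells and 100% = zero luminescence signal; higher percent means less beta-gal luminescence so fewer parasites; stock transfer was 50 nL into about 50 µL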
Bfl-1 A1 inh = inhibitors of the anti-apoptotic protein A1, read as caspase activation | MEF A1-2A-BIM cells, Caspase-Glo 3/7 luminescence, 3 h; percent of clofoctol response, vehicle zero | caspase activation, % (test concentration not listed) | 0.066% of 330,000 active | AID 2462;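 active = over half of replicate activation scores above 10%, or exactly half above 10 with the replicate mean above 10; inconclusive = replicate mean below 10 yet half the replicates above 10; inactive = over half of replicates below 10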;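 note: wells of about 30 µL received 50 nL stock; many hits fall short of the cut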
RanGTP-Imp inh = inhibitors of RanGTP-importin-beta interaction, primary screen, biochemical, FRET, CFP-Ran, YFP-importin-beta, homogeneous | cell-free CFP-Ran/YFP-importin-beta FRET ratio | inhibition, % (concentration not given with the values) | 1.1% of 300,000 active;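 active = most replicates above 15%; inconclusive = exactly half above 15%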;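 note: 0% = DMSO wells and 100% = Ran loaded with GDP instead of GTP; wells of about 40 µL received 100 nL stock; the first replicate is given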
Beta cell apopt = blocks beta cell apoptosis | INS-1E cytokine-induced death, ATP luminescence, 48 h; percent of positive-control rescue, neutral wells zero | protection from apoptosis, % (no concentration beside the values) | 0.8% of 300,000 active | AID 435005;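 active = all replicates at 75% or more, or half of them and the mean; inconclusive = half reach 75% but not the mean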;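 note: 0% = cytokine-treated negative control wells and 100% = positive control rescue; higher means more ATP so stronger rescue from cytokine killing; wells of about 40 µL received 100 nL stock; the first replicate is given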
UCH37 inh = blocks the human deubiquitinase UCH37; Q9Y5K5; purified proteasome/UCH37, Ub-AMC cleavage fluorescence; 0.33% of 330,000 active; inhibition, % (test concentration not listed);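 active = mean of two replicates above 20%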;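 note: 0% = compound-free wells with enzyme and 100% = wells lacking proteasome; stock transfer was 100 nL into about 20 µL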
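assay system = human UCH37 enzyme supplied as purified proteasome complex | amount = proteasome at 0.15 nM in the dispensed enzyme solution | schedule = 30 min compound-proteasome preincubation then 25 min substrate reaction, room temperature | measured by = fluorescence, ex 355 nm, em 460 nm | benchmarks = no-proteasome wells (full inhibition) and compound-free wells (no inhibition)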
Active calls of the source: *; ? = inconclusive; · = not tested or not shown. Compounds were not picked by outcome; 4.3% or so of the library scored in one or more.

SMILES | LANA-H2B inh | Beta2AR agonist | Calb FLC | T cruzi inh | Bfl-1 A1 inh | RanGTP-Imp inh | Beta cell apopt | UCH37 inh
C=CCOn1c(C)c(C(C)=O)c2c3nonc3ccc21 | -5.8 | 8 | -1 | -10 | 0.0 | -1.8 | -6 | -19
COc1ccc(NC(=O)c2ccc(NC3CC(=O)N(c4ccc(C)cc4C)C3=O)cc2)cc1 (stereo not given) | 1.4 | -4 | 6 | 0 | 1.0 | 0.3 | 7 | -2.5
C=CCn1c(=S)[nH]c2scc(-c3ccc(C)o3)c2c1=O | -2.3 | 11 | 34 | 5 | -0.3 | ? | -1 | 2.4
OC(CN1CCN(C(c2ccccc2)c2ccccc2)CC1)c1ccc(Br)cc1 (stereo not given) | -0.9 | 13 | -10 | 25 | 0.6 | ? | · | 3.6
CC#CCN1c2ccccc2[C@]23C[C@@H](C(=O)OC)N(C(=O)c4ccco4)C2=NC(C(=O)OC)=C(C(=O)OC)[C@H]13 | -6.0 | 3 | 7 | 12 | 0.3 | 1.1 | -10 | -0.5
CCS(=O)(=O)C(=C1NCCO1)S(=O)(=O)CC | 5.8 | 13 | 3 | 8 | 0.0 | 7.4 | -9 | 2.6
CN(C(=O)Cn1nnc(-c2ccccc2)n1)C1CCS(=O)(=O)C1 (stereo not given) | 2.6 | 3 | 0 | -8 | -0.2 | -3.2 | 0 | 4.2
CC(C(=O)NC(=O)NCc1ccccc1)N1C(=O)c2ccccc2C1=O (stereo not given) | -7.5 | -7 | · | · | -0.5 | · | -12 | 0.7
COC(=O)c1cc(=O)n(CCc2ccccc2F)c(=Nc2ccc(F)c(Cl)c2)s1 | -0.8 | 13 | -1 | 54 | 0.1 | -5.6 | 76* | 8.0
CC(=O)N1CCc2c(sc(NC(=O)C3CCCCC3)c2C(N)=O)C1 | 8.5 | -4 | -1 | -3 | -0.1 | ? | -1 | 3.2
C#CCOCCOCCOCCNc1nc(N2CCN(C(=O)CCCCCCCCCCNC(=O)[C@H]([C@@H](C)CC)n3cc(CCCCCN)nn3)CC2)nc(N2CCN(C(=O)CCCCCCCCCCNC(=O)[C@H](CCCCN)n3cc(CCCC(=O)O)nn3)CC2)n1 | -5.2 | 30 | · | · | 2.4 | · | 1 | ·
COc1ccc(N2CCN(CCCNS(=O)(=O)c3c(C)noc3/C=C/N(C)C)CC2)cc1 | -0.5 | · | 9 | 9 | -0.2 | -3.1 | 4 | ·
CCOC(=O)NC(=O)CSc1ccc(S(=O)(=O)N2CCCCC2)cn1 | -5.5 | 5 | · | · | -0.7 | · | -4 | 5.0
Cc1ccc(-c2cccc(C(=O)NCc3ccccc3)n2)c2ccccc12 | 3.4 | 13 | -8 | 34 | -0.8 | 3.9 | 0 | 5.4
COc1ccc(Cl)cc1NC(=O)C1CCCO1 (stereo not given) | 1.5 | -1 | -3 | -4 | 0.7 | 4.3 | 2 | 2.5
COCCNC(=S)N(CCc1c(C)[nH]c2ccc(OC)cc12)Cc1ccco1 | 7.3 | 16 | -4 | -8 | 0.0 | -9.8 | -7 | 1.4
Cn1cc(Br)c(C(=O)N2CCN(c3cccc(Cl)c3)CC2)n1 | 0.0 | 3 | -5 | 4 | 0.2 | 1.3 | -6 | 3.2
CCS(=O)(=O)c1nc2ccccc2n1CC(=O)N1CCOCC1 | 3.8 | -6 | 6 | -1 | 1.2 | 2.5 | -4 | 5.2
C/C(=N\Nc1ccc(C(=O)O)cc1)c1ccc2c(c1)Nc1ccccc1S2 | -0.1 | 22 | ? | 45 | 0.3 | 12 | -25 | ·
Nc1[nH]c(N=NC(=O)c2ccc(Cl)cc2)c2ccccc12 | 1.3 | -12 | -6 | 14 | -0.4 | 0.2 | -1 | 6.4
N#Cc1ccc(OCC(=O)n2cc(C(=O)c3cc(Cl)cc(Cl)c3O)cn2)cc1 | -0.3 | · | 14 | -9 | 0.8 | 1.2 | 8 | 3.5
COC(=O)C1(CC2CC(c3cccc(Br)c3)=NO2)CCN(C(=O)OC(C)(C)C)CC1 (stereo not given) | -2.6 | 3 | -18 | 33 | 0.2 | 5.7 | 5 | 0.7
COc1cccc(CN2C(=O)Nc3ccccc3C(=O)N2C(C)(C)C)c1 | -3.7 | 4 | -15 | -1 | 0.0 | -4.3 | -7 | 1.3
Cc1cc(OCc2ccc(C(=O)n3cccn3)o2)ccc1Cl | 2.2 | 12 | ? | -1 | -4.9 | 67* | -1 | 6.4
CC(=O)c1cc(NC(=O)c2ccccc2)c(=O)oc1C | -0.1 | 1 | -2 | -31 | 0.0 | -18 | -6 | 5.0
O=C(COC(=O)c1ccccc1SCC(=O)NC1CCS(=O)(=O)C1)NC1CCS(=O)(=O)C1 (stereo not given) | -2.9 | -4 | 2 | -4 | 0.2 | 1.1 | -1 | 0.3
O=C(NC(=S)Nc1ccccc1O)c1cccnc1 | -6.0 | 7 | 6 | -13 | -0.4 | 0.1 | 5 | 0.0
COc1ccc(C(=O)NC(=O)CSc2n[nH]c(N)n2)cc1 | -1.4 | -4 | · | · | 0.2 | · | -1 | 2.3
CC(C)(CO)NC(=O)Nc1ccc(Cl)c(Cl)c1 | -3.6 | 0 | 2 | 5 | 0.1 | 0.5 | -1 | 4.6
CSc1nsc(SCc2ccc(Cl)cc2)n1 | 0.2 | 6 | 2 | 6 | 0.4 | -0.4 | -9 | 1.7
O=C(CSc1nc(-c2ccco2)cc(C(F)(F)F)n1)Nc1ccc(C(=O)N2CCOCC2)cc1 | -3.8 | -16 | -4 | -4 | -0.4 | 5.1 | 11 | -4.7
O=C(CCC(=O)c1ccc(Cl)cc1)OCC(=O)c1ccccc1 | 2.2 | -3 | 8 | -18 | -0.2 | 2.7 | -7 | 2.6
O=C(Cn1c(CN2CCCCC2)nc2ccccc2c1=O)Nc1ccccc1 | 0.1 | -15 | 3 | 18 | 0.4 | 0.0 | 4 | -0.4
COc1ccc(-c2c(-c3ccc(OC)c(C)c3O)n[nH]c2C)cc1 | -0.7 | 3 | -3 | -14 | 1.4 | 5.1 | · | 1.0
Cc1cccc(-c2nc(CN3CCCC(C(=O)NC4CCC(C)CC4)C3)c(C)o2)c1 (stereo not given) | -3.7 | 3 | -1 | 50 | -0.8 | -3.2 | 3 | 6.2
CC1=C(C(=O)Nc2ccc(Cl)cc2)C(c2ccco2)NC(=O)N1 (stereo not given) | 1.7 | -6 | 13 | 0 | -1.0 | 7.1 | -8 | 4.5
CC(C)CCNC(=O)c1ccc(NC(=O)C2=CSCCO2)cc1 | 0.2 | -2 | 0 | -1 | -3.2 | 0.7 | -1 | 8.9
CC(C)c1ccc(N(C(=O)c2ccco2)C(C(=O)NC2CCCC2)c2ccncc2)cc1 (stereo not given) | -2.2 | 11 | -9 | 1 | 0.1 | 6.6 | 2 | 3.7
CN(C)C(CNc1ncnc2sc3c(c12)CCCC3)c1ccco1 (stereo not given) | 2.0 | 3 | -4 | 11 | 0.0 | 1.3 | 2 | 1.6
CCCN(CC1CC1)C(=O)COC(=O)c1[nH]c(C)c(C(=O)OCC)c1C | -5.4 | -6 | 0 | 6 | -0.2 | 0.2 | 1 | 4.6
CCNC(=O)C1CC(=O)N(c2ccc(OCC)cc2)C1 (stereo not given) | 3.3 | -7 | 2 | -9 | 0.6 | -1.6 | 1 | -3.0
CCC(C)N1C(=O)S/C(=C/c2ccc(N3CCOCC3)cc2C)C1=O (stereo not given) | -1.6 | -4 | -15 | -9 | 1.3 | -3.9 | -2 | 2.8
COc1ccccc1NC(=O)c1ccc(NS(C)(=O)=O)cc1 | 6.5 | 1 | -3 | -1 | 0.1 | -0.4 | 0 | 2.0
COc1ccc(Cl)cc1Nc1ncnc2sc(C)c(S(=O)(=O)N3CCC(C)CC3)c12 | -1.8 | 1 | 4 | -19 | 0.8 | -2.7 | -1 | -96
O=C(CCCC(=O)c1ccccc1)NCCc1ccccc1F | 3.6 | -7 | -2 | -3 | 0.3 | -0.8 | -9 | 5.0
Cn1nnnc1SCC(=O)Nc1cc(C(=O)O)cc(C(=O)O)c1 | 0.0 | 7 | -18 | 11 | 0.6 | -0.2 | -7 | 0.3
Cc1ccc(C(=O)OCC(=O)N(CC(C)C)c2c(N)n(Cc3ccccc3)c(=O)[nH]c2=O)s1 | 1.2 | -3 | -6 | -3 | -0.1 | 0.4 | · | 4.6
CCOc1ccc2[nH]cc(C(=O)N3CCN(CC)CC3)c(=O)c2c1 | 3.4 | -12 | 0 | 8 | 0.5 | -3.6 | -2 | -22
COc1ccc(-c2noc(CSc3nnc(-c4ccccc4)n3C)n2)cc1 | 6.7 | -2 | -2 | 4 | 0.0 | -0.3 | 4 | 1.0
O=C(NC1(C(F)(F)F)NC(=O)N(Cc2cccnc2)C1=O)c1ccncc1 (stereo not given) | -1.6 | 16 | 1 | -3 | -0.3 | -1.7 | -5 | 3.0
Cc1cc(C)c(C#N)c(Nc2ccccc2)n1 | 4.4 | -7 | 8 | -2 | 0.8 | · | · | -6.8
CC(=O)N1CCN(C(=O)CSc2nc3c(cnn3-c3ccccc3)c(=O)[nH]2)CC1 | 5.1 | -8 | 3 | -14 | 1.2 | -0.2 | 0 | 0.3
Cc1ccccc1NC(=O)Cn1c(C)nc2ccc(N)cc2c1=O | 0.2 | -13 | -1 | -19 | 0.5 | 0.2 | -9 | -71
CC1(C)Cc2nc3nc(SCC(=O)Nc4ccccc4)nc(N)c3cc2CO1 | 0.0 | -1 | 33 | 8 | 1.3 | 2.3 | 4 | -34
CC1=C(C#N)C(/C=N/OCc2ccc(F)cc2Cl)CC(=O)N1 (stereo not given) | -4.7 | -8 | 2 | 3 | 0.0 | -1.9 | 2 | ·
COCn1ccnc1C(O)(c1ccc(OC)cc1)c1ccc(OC)cc1 | -8.7 | -7 | -2 | -13 | -0.1 | ? | -10 | 2.1
COc1cccc(NC(=O)Cc2ccc(C)cc2)c1 | 3.4 | 2 | -1 | 6 | 0.7 | -3.2 | 4 | 5.3
CS(=O)(=O)c1ccc2nc(N)sc2c1 | 4.9 | -7 | -7 | -6 | 0.2 | 2.1 | 0 | 0.5
Cc1ccc(N2CCN(S(=O)(=O)c3ccc4c(c3)NC(=O)C(C)C(=O)N4)CC2C)cc1 (stereo not given) | 7.4 | 4 | -6 | -5 | 0.0 | ? | -1 | -1.1
CC(C)C[C@H](NC(=O)C1CCN(S(=O)(=O)c2ccccc2)CC1)C(=O)NCc1ccccn1 | 3.6 | 0 | -2 | -4 | -0.2 | 2.4 | 2 | 3.7
COC(=O)[C@H]1C[C@H]1[C@@H](NC(=O)c1cccnc1)c1ccccc1 | -0.7 | 3 | -12 | -2 | -1.0 | 3.6 | -2 | 4.1
CC(C)NC(=S)Nc1c(N)[nH]c(=O)[nH]c1=O | 0.5 | 0 | 6 | -4 | 0.5 | 0.2 | -4 | -2.1
Cc1ccc(NC(=S)N(Cc2cccs2)Cc2cc3cc(C)cc(C)c3[nH]c2=O)cc1 | 3.9 | 7 | -1 | -4 | 0.3 | -3.4 | 2 | 6.2

High-throughput results deposited in PubChem BioAssay by several laboratories.
